Screening data as filed in PubChem BioAssay.
VACV Venus inh: qHTS for Stage-Specific Inhibitors of Vaccinia Orthopoxvirus: Venus Reporter Primary qHTS | Potency, µM (top dose mostly 36.5 µM), without a hit: at the highest dose activity change, negative = inhibition, actives largely listed as inhibitors | Vaccinia virus Venus reporter expression, fluorescence | 330,000 tested, 0.46% active; active means well fitted inhibition curve with a large enough effect; inconclusive means small, poorly fitted or top-dose-only effect; inactive means no such curve, though single readings can be large or run the other way; tested in A549 cells; note: nearly all actives have a fitted effect of over 30% in size; inactives centre near -10
VACV mCherry inh: qHTS for Stage-Specific Inhibitors of Vaccinia Orthopoxvirus: mCherry Reporter Primary qHTS | 310,000 tested, 0.63% active | Vaccinia virus mCherry reporter infection, fluorescence; about a quarter of the inactives have no number | Potency, µM (doses to about 36.5 µM), for inactives: top-dose activity change, negative = inhibition, hits mostly inhibitors; active = well fitted inhibition curve with a large enough effect; inconclusive = small, poorly fitted or top-dose-only effect; inactive = no such curve, though single readings can be large or run the other way; tested in A549 cells; note: nearly all actives have a fitted effect of over 35% in size; inactives centre near -10
* marks the source's active call; other numbers are inactive results; i = inactive; ? = inconclusive; · = not tested or not shown; & = joins results of further samples; [ ] = dose if it differs, or a comment. % is set by controls: 0 for no effect and ±100 for the full control effect; potency is the fitted concentration of half-maximal effect.

molecule | VACV Venus inh | VACV mCherry inh
COc1ccccc1C(=O)NC(=O)COC(=O)c1cccc(C)c1O | -11.8% | -10.5%
O=C(COc1ccccc1C(=O)O)Nc1nc2ccc([N+](=O)[O-])cc2s1 | -15.5% | -17.6%
Oc1ccc(F)c(CN2CCN(c3ncc(Cc4ccccc4)cn3)CC2)c1 | -21.6% | ?
COCCCNC(=O)Cn1cnc2sc(C)c(S(=O)(=O)N3CCN(c4ccccc4OC)CC3)c2c1=O | -3.5%&-16.1% | -18.2%
Cc1cc(C)c(NC(=O)Cn2nnc(C(=O)NCCc3ccccc3)c2N)c(C)c1 | -2.1% | -6.1%
COc1ccc(CN(CCN2CCOCC2)C(=O)c2c(F)cccc2F)cc1OC | -4.3% | -10.7%
O=C(NC(=S)Nc1ccccc1Cl)c1cncc(C#Cc2ccccc2)c1 | -6.3% | -12.5%
O=C(CSc1ncc(S(=O)(=O)c2ccc(Cl)cc2)c(=O)[nH]1)Nc1ccc2c(c1)OCCO2 | 11.6% | 6.9%
Cc1cc(C)cc(NC(=O)CN2C(=O)c3ccccc3Sc3ccc(C(=O)N4CCOCC4)cc32)c1 | -2.7% | -4.0%
COc1ccc(C)cc1NC(=O)C1C2C=CC(C2)C1C(=O)O (stereo unspecified) | -21.8% | -3.2%
CCN(CC)c1ccc(C2C3CCCCC3(O)CCN2C(=O)c2cccs2)cc1 (stereo unspecified) | -28.2% | -25.7%
Cc1cc(C)cc(NC(=O)C2CCN(c3cc(C)nc4c(-c5ccc(Cl)cc5)c(C)nn34)CC2)c1 | 5.5% | 2.1%

Next part
molecule | VACV Venus inh | VACV mCherry inh
O=C(Nc1cccn2nc(COCCO)nc12)C(c1ccccc1)c1ccccc1 | -4.1% | -8.7%
Cc1ccccc1NC(=O)COc1nsnc1N1CCOCC1 | -2.9% | 1.7%
CCc1ccc(CNCc2c(C(=O)O)n(Cc3ccc(F)cc3Cl)c3cc(OC)ccc23)cc1 | ? | ?
CCOC(=O)c1ccc(CNS(=O)(=O)c2c(C)ccc3nsnc23)o1 | -15.3% | ·
CCCCOCCCNCc1cccn1CCN1CCOCC1 | -9.9% | i
NS(=O)(=O)c1cccc(NC(=O)CN2CCN(S(=O)(=O)c3ccc4c(c3)OCCO4)CC2)c1 | 3.6% | -10.5%
O=C1NC(=O)/C(=C/c2ccc(O)cc2)S1 | -2.1% | i
O=C(c1ccccc1)N1CCCCC(S(=O)(=O)c2ccc3ccccc3c2)C1=O (stereo unspecified) | -15.3% | -3.8%
COc1ccc(C(=O)O)cc1S(=O)(=O)N1CCN(Cc2ccc3c(c2)OCO3)CC1 | -6.1% | i
Cc1oc2c(CN(C)C)c(O)ccc2c(=O)c1-c1cscn1 | -9.4% | -0.6%
Cn1c(=O)cc(OCC(=O)NCc2ccc(F)cc2Cl)c2ccccc21 | 1.4% | -3.3%
CCN1CCN(C(=O)c2ccc3c(c2)N(Cc2ccc(F)cc2)C(=O)c2ccccc2S3=O)CC1 (stereo unspecified) | -4.6% | -6.1%

One compound at a time (already shown).
Results for COc1ccc(C(=O)O)cc1S(=O)(=O)N1CCN(Cc2ccc3c(c2)OCO3)CC1 = VACV Venus inh = -6.1%; VACV mCherry inh = i
Results for CCc1ccc(CNCc2c(C(=O)O)n(Cc3ccc(F)cc3Cl)c3cc(OC)ccc23)cc1 = VACV Venus inh = ?; VACV mCherry inh = ?
Results for Cn1c(=O)cc(OCC(=O)NCc2ccc(F)cc2Cl)c2ccccc21 = VACV Venus inh = 1.4%; VACV mCherry inh = -3.3%

Look-ups from the entries so far.
VACV Venus inh, `CCOC(=O)c1ccc(CNS(=O)(=O)c2c(C)ccc3nsnc23)o1` is entered as -15.3%
VACV Venus inh, `Cn1c(=O)cc(OCC(=O)NCc2ccc(F)cc2Cl)c2ccccc21` is entered as 1.4%
VACV Venus inh, `O=C1NC(=O)/C(=C/c2ccc(O)cc2)S1` is entered as -2.1%

Next part
molecule | VACV Venus inh | VACV mCherry inh
Cc1ccc(C(=O)CCNc2cccc(Br)c2)o1 | -12.4% | -1.5%
Oc1ccc(Br)cc1/C=N/n1c(C2CCCCC2)n[nH]c1=S | -11.6% | -5.1%
N#C/C(=C/c1ccc(Oc2ccc([N+](=O)[O-])cn2)cc1)C(=O)N1CCOCC1 | -3.8% | -11.4%
O=C(CSc1ncnc2c1nnn2Cc1ccccc1)NC1CCCC1 | 8.1% | -0.4%
COC(=O)C1=CN(c2cccc(OCc3ccccc3)c2)C(N)=C(C#N)C1c1cccc(OC)c1OC (stereo unspecified) | -4.0% | -24.3%
Cc1ccc(CN2C(=O)CCC2C(=O)NCCN2CCN(c3cccc(Cl)c3)CC2)cc1 (stereo unspecified) | -5.7% | -19.8%
CN(CCO)c1ccc(C=NNc2ccc([N+](=O)[O-])cc2S(=O)(=O)Nc2ccccc2C(=O)O)cc1 | -16.2% | -21.3%
C[C@H]1O[C@@H](O[C@H]2[C@@H](O)C[C@@H](O[C@H]3[C@@H](O)C[C@H](O[C@H]4CC[C@@]5(C)[C@H](CC[C@@H]6[C@@H]5CC[C@]5(C)[C@@H](C7=CC(=O)OC7)CC[C@]65O)C4)O[C@@H]3C)O[C@@H]2C)C[C@H](O)[C@@H]1O | 0.0251µM* | 12.6µM*
COc1cccc(Cn2c(=O)sc3ccccc3c2=O)c1 | -9.9% | -12.5%
CNC(=O)COC(=O)c1ccccc1Nc1ccccc1 | -9.5% | -14.9%
O=C(NCc1ccco1)C1Cc2cc(Cl)ccc2O1 (stereo unspecified) | 3.0% | -3.7%
CCOC(=O)c1sc2nc[nH]c(=O)c2c1C | -16.9% | -26.1%

(listing goes on)
molecule | VACV Venus inh | VACV mCherry inh
O=C(Nc1cccnc1)C1=NN(C2CCS(=O)(=O)C2)C(=O)CC1 (stereo unspecified) | 1.0% | i
CCN1CCN(CCCNC(=O)c2ccc(NC(=O)C3=C(C)OCCS3)cc2)CC1 | -8.2%[7.34 µM] | i[7.34 µM]
NC(=O)c1nsc(C(=O)N(c2cccc(F)c2)C(C(=O)NCc2ccccc2)c2ccc(O)cc2)c1N (stereo unspecified) | -14.5% | -28.2%
CN(CCc1ccccn1)C(=O)c1ccc(OC(F)(F)F)cc1 | -19.8% | -8.0%
COc1ccccc1Nc1ncc(C(C)=O)c(C)n1 | -16.1% | ·
COc1ccc(/C=C2\COc3ccccc3C2=O)c(OC)c1 | -19.2% | ?
COc1ccc(Cc2nnc(N/N=C/c3ccc(Br)cc3)[nH]c2=O)cc1OC | -6.1%[7.34 µM] | -10.4%[7.34 µM]
COc1cccc(Nc2nc(-c3sc(N)nc3C)cs2)c1 | 5.1% | i
O=Cc1ccc(OC2OCCOC2Oc2ccc(C=O)cc2)cc1 (stereo unspecified) | 2.3% | i
Cc1ccc(-c2nc3ncccc3o2)cc1NC(=O)c1cc2ccccc2o1 | -25.4% | ·
COc1ccccc1NS(=O)(=O)c1ccc(C)c(NC(=O)NC2CCCCC2)c1 | -26.6% | -28.6%
O=C(COC(=O)c1ccccc1Oc1ccccc1)NC1CC1 | 11.8% | i

Additional structures:
Results follow in this order: VACV Venus inh	VACV mCherry inh
O=C(NCc1ccccc1)C1=C[C@@H](C2CCCCC2)C[C@@H](OCc2ccc(CO)cc2)O1
  ?	-21.3%
CCOC(=O)CC(NC(=O)CCc1c(C)nc2ncnn2c1C)c1ccc(OC(C)C)cc1 (stereo unspecified)
  -16.1%&-10.6%	-15.8%
O=C(C1COc2ccccc2O1)N(Cc1cccnc1)c1nc2ccc(Cl)cc2s1 (stereo unspecified)
  -18.5%	-25.5%
CCOC(=O)C1CSC(CC(=O)Nc2ccc(OC(F)(F)F)cc2)C(=O)N1 (stereo unspecified)
  7.3%	-15.6%
COc1cccc2c1C(=O)c1c(O)c3c(c(O)c1C2=O)CC(O)(C(C)=O)CC3OC1CC(N(C)C)C(O)C(C)O1 (stereo unspecified)
  425.1%[activator]	84.1%[activator]
Cc1noc(C)c1C(=O)Nc1nc(-c2cc(F)ccc2F)cs1
  3.5%	-2.9%
CC(C)(Oc1ccc(Cl)cc1)C(=O)OCc1nc2ccsc2c(=O)[nH]1
  -3.9%	i
CC(C)(C)C(=O)c1cn(CC(=O)NCc2ccc3c(c2)OCO3)c2ccccc12
  -9.9%	-9.5%
Cc1ccc(CNC(=O)c2c[nH]c3ccc(S(=O)(=O)N4CCOCC4)cc3c2=O)cc1
  13.1%	0.0%
Cc1nnc(SCCn2c(N3CCCCCC3)nc3c2c(=O)[nH]c(=O)n3C)s1
  -13.5%	-11.7%
O=C(/C=C/c1cccc(Cl)c1)OCC(=O)c1ccc[nH]1
  -14.9%	-2.7%
CC(=O)c1cccc(NC(=O)COC(=O)CCC(=O)c2cccs2)c1
  -11.0%	-18.2%
CCC(c1nnnn1CCOC)N(Cc1ccc(C)cc1)Cc1cc2cc(OC)ccc2[nH]c1=O (stereo unspecified)
  -12.5%	-14.8%
COc1ccc(-c2cn[nH]c2-c2ccc(OCc3ccc(F)cc3)cc2O)cc1OC
  -27.1%	-21.7%
Cc1cc(F)ccc1S(=O)(=O)Nc1ncnc2sc3c(c12)CCC3
  -6.9%	-7.0%
CN(c1ccc(C(=O)NC2CCCCC2)cc1)S(=O)(=O)c1ccccc1
  -23.3%	-0.2%
O=C(OCC(=O)c1ccc(Cl)s1)c1cnccn1
  -3.4%	-6.2%
CCCOc1ccc(N2C(=O)CC(N(Cc3ccco3)C(=O)CC)C2=O)cc1 (stereo unspecified)
  7.9%	i
CCN(CC)c1ccc(C=C(c2nnnn2-c2ccccc2)c2nnnn2-c2ccccc2)cc1
  -12.3%	-19.0%
CC(=O)N1CCN(C(=O)/C(C#N)=C/c2ccc3c(c2)OCO3)CC1
  -6.8%	?

More structures
Results follow in this order: VACV Venus inh	VACV mCherry inh
Cc1c(Cc2ccccc2)c(=O)n2c([nH]c3ccccc32)c1C#N
  -21.8%	?
CC(=O)Nc1ccc(/C(C)=N/NC(=O)c2ccc(COc3ccccc3Cl)o2)cc1
  -4.4%	i
COc1ccc(NC(=O)C2=C(C)Nc3nc(CCCO)nn3C2c2ccc(O)cc2)cc1 (stereo unspecified)
  -13.2%	-3.2%
COc1ccc(NC(=O)C(=O)NNC(=O)COc2ccc(OC)cc2)cc1
  -18.8%	-22.8%
O=C(Nc1ccccc1Cl)c1cccs1
  ?	·
CC(C)Cc1cc(C(=O)NCCN2CCOCC2)no1
  -7.5%	i
Cc1ccc(S(=O)(=O)N2CCCC2C(=O)Nc2cc(C)on2)cc1 (stereo unspecified)
  -0.9%	i
O=C(COC(=O)C12CC3CC(CC(C3)C1)C2)Nc1ccc2[nH]c(=O)[nH]c2c1
  -15.7%	-14.9%
Cc1ccc(-c2nnn(CC(=O)Nc3cccc4cccnc34)n2)o1
  -18.9%	-27.9%
COc1ccc(NC(=O)OC(CN2CCCCC2)C(F)(F)F)cc1 (stereo unspecified)
  -15.4%	·
Cc1c(-c2ccccc2)[n+](=O)c(-c2ccc(Cl)cc2)c(C)n1[O-]
  0.0%	-5.0%
CCC(C(=O)Nc1c(C)cc(C)cc1C)n1c(=O)c(-c2ccccc2NC(C)=O)nc2ccccc21 (stereo unspecified)
  -2.2%	-7.9%
Cc1nc2oc(C(=O)c3ccccc3)c(N)c2c2c1COC(C)(C)C2
  -17.5%	-15.7%
NC(=O)c1c(/N=C/c2cccnc2)sc2c1CCCC2
  -20.1%	-27.1%
NC(=O)c1ccccc1NC(=O)CN1CCN(Cc2ccc(Cl)cc2Cl)CC1
  -20.1%	-5.1%
CCOC(=O)c1c(C)nc(C)c(C(=O)OCC)c1-c1ccc(Br)cc1
  -12.4%	-15.1%
CCOc1ccccc1C(=O)NCC(=O)OCc1csc(CC(=O)Nc2ccc(C)cc2)n1
  -19.1%	-4.2%
COc1ccc2cc(-c3ccccc3)c(=O)oc2c1
  -25.2%	i
CS(=O)(=O)N(CC(=O)N1CCc2ccccc2C1)c1cccc(F)c1
  -7.0%	i
CCN(CC)C(=O)c1ccc(C(=O)c2ccccc2)cc1
  -16.2%	i

Reformatted field by field: 2 of the compounds above
structure: COc1ccc(NC(=O)C(=O)NNC(=O)COc2ccc(OC)cc2)cc1
  VACV Venus inh: -18.8%
  VACV mCherry inh: -22.8%

structure: O=C(Nc1ccccc1Cl)c1cccs1
  VACV Venus inh: ?
  VACV mCherry inh: ·

Other results.
Results follow in this order: VACV Venus inh	VACV mCherry inh
COc1ccc(Oc2nnc(C)c3ccccc23)cc1
  -26.7%	?
CC(C)[C@H](NC(=O)OCc1ccccc1)C(=O)OCC(=O)c1ccccc1
  -19.7%	-25.2%
O=C(NCc1ccc2c(c1)OCO2)C(=O)Nc1cc2c3c(c1)CC(=O)N3CCC2
  -13.0%	i
Cc1onc(-c2ccccc2)c1C(=O)OCC(=O)c1ccccc1
  -14.1%	·
C/C(CC(=O)Nc1ccc2c(c1)OCCO2)=N\NC(=O)Cc1ccc(Cl)cc1
  -4.6%	-16.3%
COc1cc(OC)cc(C(=O)N2CCCC(Nc3ccc(F)cc3)C2)c1 (stereo unspecified)
  -8.4%	?
Cc1oc(C(C)(C)C)cc1C(=O)NCc1ccc2c(c1)OCO2
  6.8%	-9.5%
CC(=O)c1c(C)oc2c1cc(NS(=O)(=O)c1ccc(C(=O)O)cc1)c1ccccc12
  -3.6%	-26.3%
CC(=O)Nc1cccc(NC(=O)CCc2ccccc2)c1
  0.0%	i
CCCn1c(SCC(=O)NC(C)(C)C)nnc1-c1ccco1
  -1.5%	-6.5%
O=C(Nc1nnc(S(=O)(=O)Nc2ccccc2)s1)C1CCCCC1
  -11.3%&-10.4%	-9.2%
CC(NC(=O)NCCCC(=O)O)(C(F)(F)F)C(F)(F)F
  -5.4%	i
COc1ccc(CN(C(=S)Nc2ccccc2)C2CC(=O)N(c3ccccc3)C2=O)cc1 (stereo unspecified)
  -18.3%	-12.1%
